Assay outcomes deposited in PubChem BioAssay by ICCB-Longwood Screening Facility, Harvard Medical School.
HCMV NEC inh = cytomegalovirus nuclear egress complex inhibition; HTRF UL50-UL53 interaction, normalized percent inhibition; inhibition, % (concentration not given with the values); hit rate 0.15% among 190,000; AID 1918969;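 active = both replicates at 50% or more, plus weaker picks with an unusually low signal ratio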;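 note: stock transfer was 100 nL into about 20 µL; 0% = negative control wells and 100% = wells with untagged competitor protein; inactives centre near -12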
Sa growth inh = inhibitors of Staphylococcus aureus growth at 42 °C | S. aureus RN4220 growth, OD600, 20 h; stronger effect = lower value | hit rate 0.53% among 170,000 | relative growth, % (test concentration not listed);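 active = growth at 42 °C up to 50% and 20 or more points under that at 30 °C, or under 10% at both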;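 note: 300 nL library stock went into each well; scaled to the means of positive and negative controls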
GIV Gai3 FP = GIV-Galpha-i interaction inhibition | hit rate 0.42% among 210,000 | Galpha-i3/FITC-GIV peptide fluorescence polarization, 90 min; stronger effect = lower value; scaled: aluminum fluoride 0%, vehicle 100% | P08753 | percent of control (FP), % (test concentration not listed);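 active = replicate mean at 85% of control or lower, very high polarization wells dropped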;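 note: wells of about 15 µL received 100 nL stock; the first replicate is given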
Target sequence (P08753 whole entry, looked up): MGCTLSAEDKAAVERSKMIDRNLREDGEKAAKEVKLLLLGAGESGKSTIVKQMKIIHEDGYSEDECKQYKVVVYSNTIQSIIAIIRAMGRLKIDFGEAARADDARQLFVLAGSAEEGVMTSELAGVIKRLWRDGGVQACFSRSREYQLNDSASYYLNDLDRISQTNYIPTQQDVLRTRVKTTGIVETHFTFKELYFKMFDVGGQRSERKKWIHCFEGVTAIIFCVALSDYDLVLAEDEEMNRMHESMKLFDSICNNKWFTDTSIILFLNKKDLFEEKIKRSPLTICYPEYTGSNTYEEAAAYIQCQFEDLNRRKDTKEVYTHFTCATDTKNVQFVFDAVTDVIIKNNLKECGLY
Sa growth inh second temp = also measured in Sa growth inh; calls as there; relative growth, %; measured here: growth at 30 °C;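 optical density after 20 h as mean of two plates; 100% = untreated growth and lower means inhibition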
* = called active by the depositor; / = not tested or not shown; & = joins results of further samples. No enrichment for hits. Share with any hit: about 0.79%.

1	Cc1ccc(C(=O)/C=C2/CC(c3ccccc3)NCCN2)c(O)c1 (stereo unspecified)
2	Cn1c(=O)c(C(=O)NCCc2ccc(Cl)cc2)nc2ccccc21
3	O=C(COc1nsnc1N1CCOCC1)c1ccccc1
4	Cc1ccc(C)n1-c1c(C)n(C)n(-c2ccccc2)c1=O
5	COc1cc(/C=C(\C#N)c2nc3ccccc3n2C)cc(OC)c1OC
6	O=C(NCc1ccc2c(c1)OCO2)C1CCN(c2nnc(-n3cccc3)s2)CC1
7	Cc1nn(-c2ccccc2)cc1-c1noc(C(=O)NCCC2=CCCCC2)n1
8	C=CCN(CC=C)CC(O)Cn1c(-c2ccc(OC)cc2)cc2ccccc21 (stereo unspecified)
assay / compound	1	2	3	4	5	6	7	8
HCMV NEC inh	-11	-140	/	2	-23	-2	-17	/
Sa growth inh second temp	106	/	61	94	78	74	/	80
GIV Gai3 FP	/	105	102	/	106	105	102	102
Sa growth inh	115	/	80	85	101	99	/	98

9	CCc1cccc(NC(=O)CCS(=O)(=O)c2cc(Br)cc3c2N(C(C)=O)CC3)c1
10	CCc1cc2c(=O)c(-c3nc4ccccc4[nH]3)coc2cc1OC(=O)N1CCOCC1
11	CN(c1ccc(O)cc1)c1nc(-c2cccnc2)cs1
12	CN(C)c1ccc(/C=C(\C#N)c2nc3ccccc3c(=O)[nH]2)cc1
13	CCCN(C(=O)c1cc(S(=O)(=O)N2CCc3ccccc32)cn1C)c1ccc(OCC)cc1
14	O=C(CC12CC3CC(CC(C3)C1)C2)N1CCOCC1
15	CCN(Cc1ccccc1)C(=O)CN1C(=O)CSc2ccc(S(=O)(=O)N(CC)CC)cc21
16	CCNc1nc(NCC)nc(OCCOC(=O)c2ccccc2)n1
assay / compound	9	10	11	12	13	14	15	16
HCMV NEC inh	11	-1	-13	-43	-2	-6	2&-14	-8
Sa growth inh second temp	93	85	75	105	92	88	87	/
GIV Gai3 FP	100	100	/	254	102	105	102&99	100
Sa growth inh	116	113	105	103	110	107	104	/

17	CCOC(=O)c1[nH]c(COC(=O)CCc2ccccc2)c(C(=O)OCC)c1C
18	COc1cccc(NC(=O)CSc2nnc3scc(-c4ccccc4)n23)c1
19	O=S(=O)(N=S(N1CCOCC1)N1CCOCC1)c1ccccc1
20	COC(CN(Cc1nc(N)nc(Nc2ccc(C)cc2)n1)Cc1nc(N)nc(Nc2ccc(C)cc2)n1)OC
21	CNC(=O)c1cnn2c(C(F)(F)F)cc(C(F)(F)F)nc12
22	O=C(/C=C/c1cccs1)Nc1ccccc1N1CCCCC1
23	Cc1c(C2=CCN(S(=O)(=O)c3cnc[nH]3)CC2)c2ccccc2n1Cc1ccc(F)cc1
24	Cc1cc(SCC(=O)NC(C)(C#N)C(C)C)nc2ccccc12 (stereo unspecified)
assay / compound	17	18	19	20	21	22	23	24
HCMV NEC inh	-13	8	-15	-5	-27	-37	-37	-18
Sa growth inh second temp	96	55	95	89	81	90	/	97
GIV Gai3 FP	/	105	96	/	99	/	106	/
Sa growth inh	89	101	102	109	118	100	/	99

25	O=S(Cc1ccccc1)c1ccccc1 (stereo unspecified)
26	CC(C)NC(=O)C(C)N1C(=O)CCCc2ccccc21 (stereo unspecified)
27	O=c1nc(SCc2ccc(Cl)cc2)c2c(n1CC1CCCO1)CCC2 (stereo unspecified)
28	CC(NCc1ccccc1O)c1ccccc1 (stereo unspecified)
29	Cc1ccc(SCC2=NNC(=O)C2)cc1
30	Cc1ccc(S(=O)(=O)c2c(O)cc(C)c(NS(=O)(=O)c3ccc(Br)cc3)c2C)cc1
31	CCCC[C@@]1(C2CCCC2)Cc2cc(OCC(=O)O)c(Cl)c(Cl)c2C1=O
32	CCOC(=O)c1sc(NC=O)c(C(=O)OCC)c1C
assay / compound	25	26	27	28	29	30	31	32
HCMV NEC inh	-44	-8	-26	1	/	8	-57	-8
Sa growth inh second temp	83	/	/	93	91	75	/	85
GIV Gai3 FP	101	111	103	/	107	102	105	/
Sa growth inh	88	/	/	113	100	95	/	99

33	COc1ccc(NC(=O)CN(c2cccc(C)c2C)S(=O)(=O)c2ccccc2)cc1OC
34	CSc1nc(NCCOC(=O)c2ccco2)c(C#N)c(-c2ccc(C(C)(C)C)cc2)n1
35	COc1ccc(C(=O)OCC#N)cc1S(=O)(=O)N1CCN(c2cccc(Cl)c2)CC1
36	O=C(COC(=O)Cc1cccc(C(F)(F)F)c1)Nc1ccc2[nH]c(=O)[nH]c2c1
37	COc1ccc(CCNc2ncnc3[nH]ncc23)cc1OC
38	CC1=C(C#N)C(=O)N(C)C(=O)/C1=C/c1ccc(-c2ccc(Cl)cc2)o1
39	COC(=O)CSc1ncc2c(n1)-c1ccccc1N(Cc1ccc(Cl)cc1)S2(=O)=O
40	Cc1ccc2c(c1)c(=O)c1ccccc1n2CCCC(=O)Nc1ccc(C)c(C)c1
assay / compound	33	34	35	36	37	38	39	40
HCMV NEC inh	-28	18	6	5	1	/	/	-47
Sa growth inh second temp	75	94	99	96	90	88	84	83
GIV Gai3 FP	99	110	/	/	/	104	97	106
Sa growth inh	108	114	103	106	110	75	89	98

41	O=C1C=C(Nc2ccccc2Br)CCC1
42	CCOC(=O)c1c(-c2cccs2)csc1NC(=O)C1CC=CCC1C(=O)O (stereo unspecified)
43	COC(=O)c1cc2sc(Cl)cc2n1CC(=O)Nc1cc(OC)cc(OC)c1
44	Cc1ccc(S(=O)(=O)NC(=O)N2CCC(C)CC2)cc1
45	COCCn1c(SCC(=O)OC2CCCCC2)nnc1-c1ccco1
46	CC1(C(=O)NCc2ccc(F)cc2)CCN(C(=O)NC2COc3ccccc3C2)CC1 (stereo unspecified)
47	CCc1nc2ccc(C(=O)NCc3ccc(N(C)C)cc3)cc2nc1CC
48	NC(=O)NC1(C(F)(F)F)Oc2ccccc2O1
assay / compound	41	42	43	44	45	46	47	48
HCMV NEC inh	-34	-4	-31	-2	-20	6	/	-2
Sa growth inh second temp	74	98	93	106	81	/	100	84
GIV Gai3 FP	/	/	101	104	105	97	102	/
Sa growth inh	101	104	117	109	92	/	93	99

49	CCC(C(=O)NC1CCCCC1)N1C(=O)CCCc2ccccc21 (stereo unspecified)
50	S=C(c1c[nH]c2ccccc12)N1CCCCC1
51	CCn1c(SCc2nc(-c3cccs3)no2)nnc1-c1ccncc1
52	NC(=S)N/N=C/c1c(Sc2ccc(Cl)cc2)nc2sccn12
53	O=C(CC1SC(=O)NC1=O)Nc1ccc(Cl)cc1 (stereo unspecified)
54	Cc1ccc(CNC(=O)Cn2c(=O)n(Cc3ccccc3)c(=O)c3sc4ccccc4c32)cc1
55	N#Cc1ccccc1-n1ccc2ccccc21
56	CC1=C(C(=O)Nc2ccc(F)cc2)C(c2ccc(N3CCOCC3)cc2)C2=C(CCCC2=O)N1 (stereo unspecified)
assay / compound	49	50	51	52	53	54	55	56
HCMV NEC inh	-9	4	/	-48	-16	-22	3	-9
Sa growth inh second temp	/	93	88	61	/	83	113	98
GIV Gai3 FP	111	106	106	104	106	99	103	103
Sa growth inh	/	112	81	86	/	96	107	85

Two entries from above, field by field.
53	O=C(CC1SC(=O)NC1=O)Nc1ccc(Cl)cc1 (stereo unspecified)
  HCMV NEC inh: -16
  Sa growth inh second temp: /
  GIV Gai3 FP: 106
  Sa growth inh: /
51	CCn1c(SCc2nc(-c3cccs3)no2)nnc1-c1ccncc1
  HCMV NEC inh: /
  Sa growth inh second temp: 88
  GIV Gai3 FP: 106
  Sa growth inh: 81

Going on with the list:
57	S=C(NCc1cccnc1)SCc1cc(Cl)sc1Cl
58	O=c1oc2ccccc2cc1-c1cn2cc(Cc3ccc(Br)cc3)sc2n1
59	Cc1cc2oc(=O)cc(CN(C)C3CCS(=O)(=O)C3)c2cc1C(C)C (stereo unspecified)
60	COC(=O)CN1C(=O)CSc2ccc(S(=O)(=O)N3CCOCC3)cc21
61	COc1ccc(NC(=O)Cn2c(=O)n(CCc3ccccc3)c(=O)c3c4c(sc32)CCCC4)cc1
62	N#CCC(=O)Nc1ccc(C(=O)OCC(=O)N2CCN(c3ccccc3)CC2)cc1
63	CCN(c1ccc(C)cc1C)S(=O)(=O)c1nnc(NC(=O)c2ccccc2OC)s1
64	COc1ccc(-c2cc(C(=O)Oc3cccc(C)c3)c3cc(C)ccc3n2)cc1
assay / compound	57	58	59	60	61	62	63	64
HCMV NEC inh	2	-1	18	/	-8	-25	-18	-19
Sa growth inh second temp	84	91	107	92	86	98	72	95
GIV Gai3 FP	108	106	/	110	108	/	103	107
Sa growth inh	109	96	120	103	100	81	91	98

65	COc1cc(OC)c(NC(=O)c2cnn(-c3ccc(Br)cc3)c2)cc1Cl
66	O=C(NCCCN1CCN(Cc2ccccc2)CC1)c1nnc(Cc2ccc(F)cc2)o1
67	O=C(COC(=O)c1cncc(Br)c1)Nc1ccc(N2CCCCC2)cc1
68	CCN(CC)c1ccc(/C=C2\CCc3ccccc3C2=O)cc1
69	CCOc1cc(C#N)c(NC(=O)c2ccc(OC)cc2)cc1OCC
70	C(=N\n1c(-c2ccco2)csc1=Nc1cccnc1)/c1ccccn1
71	CCN(Cc1ccccc1)C(=O)Nc1ccc2c(c1)N(C)C(=O)c1ccccc1S2
72	C=CCn1c(SCC(=O)c2ccc3cc[nH]c3c2)nnc1-c1cccnc1
assay / compound	65	66	67	68	69	70	71	72
HCMV NEC inh	0	20	-31	/	-8	-50	0	-17
Sa growth inh second temp	/	92	92	92	86	67	93	63
GIV Gai3 FP	107	108	/	253	/	/	109	99
Sa growth inh	/	95	102	118	87	72	106	75

73	COc1ccc(C2NN(CN3CCOCC3)C(=S)N2Cc2ccccc2)cc1 (stereo unspecified)
74	CCN1CCC(N(Cc2ccc(F)cc2)C(=O)Nc2cc(C)ccc2OC)CC1
75	CC1=C(c2ccc(C)c(C)c2)S(=O)(=O)N(Cc2ccc(C(=O)NCCc3ccccc3)cc2)C1=O
76	O=C(O)c1n[nH]c(=O)c2ccccc12
77	O=C(NC1CCCC1)c1cnc2n(c1=O)CCS2
78	CC1(C)CC(=NNC(=O)CC#N)CC(C)(C)N1
79	Cc1cc(-n2c(C)cc(/C=C/C(=O)O)c2C)no1
80	COc1ccc(CCN(C)C(=S)NN)cc1OC
assay / compound	73	74	75	76	77	78	79	80
HCMV NEC inh	-44	-25	5	-10	4	-17	-21	-1
Sa growth inh second temp	88	85	/	/	90	89	102	63
GIV Gai3 FP	/	100	103	99	105	100	/	/
Sa growth inh	92	99	/	/	96	97	96	66

81	CCOC(=O)c1cccc(NC(=O)Cn2c(=O)nc(-c3ccccc3)c3ccccc32)c1
82	COc1cccc(OC)c1OC(=O)c1cccc(S(=O)(=O)N(C)OC)c1
83	Cc1onc(-c2ccccc2Cl)c1C(=O)NC(c1nnc(-c2ccccc2)o1)c1ccccc1F (stereo unspecified)
84	CCC(CC)C(=O)Oc1cccc(-n2cnnn2)c1
85	Cc1ccc(N2CCn3c2nc2c3c(=O)n(C/C=C/c3ccccc3)c(=O)n2C)cc1C
assay / compound	81	82	83	84	85
HCMV NEC inh	/	-33	-6	-28	/
Sa growth inh second temp	72	85	/	/	91
GIV Gai3 FP	100	/	96	103	108
Sa growth inh	82	94	/	/	103

Some of the entries so far, with values under each structure.
Values run as follows: HCMV NEC inh | Sa growth inh second temp | GIV Gai3 FP | Sa growth inh
#67 O=C(COC(=O)c1cncc(Br)c1)Nc1ccc(N2CCCCC2)cc1
  -31 | 92 | / | 102
#68 CCN(CC)c1ccc(/C=C2\CCc3ccccc3C2=O)cc1
  / | 92 | 253 | 118
#69 CCOc1cc(C#N)c(NC(=O)c2ccc(OC)cc2)cc1OCC
  -8 | 86 | / | 87
#70 C(=N\n1c(-c2ccco2)csc1=Nc1cccnc1)/c1ccccn1
  -50 | 67 | / | 72
#71 CCN(Cc1ccccc1)C(=O)Nc1ccc2c(c1)N(C)C(=O)c1ccccc1S2
  0 | 93 | 109 | 106
#72 C=CCn1c(SCC(=O)c2ccc3cc[nH]c3c2)nnc1-c1cccnc1
  -17 | 63 | 99 | 75
#73 COc1ccc(C2NN(CN3CCOCC3)C(=S)N2Cc2ccccc2)cc1 (stereo unspecified)
  -44 | 88 | / | 92
#74 CCN1CCC(N(Cc2ccc(F)cc2)C(=O)Nc2cc(C)ccc2OC)CC1
  -25 | 85 | 100 | 99
#75 CC1=C(c2ccc(C)c(C)c2)S(=O)(=O)N(Cc2ccc(C(=O)NCCc3ccccc3)cc2)C1=O
  5 | / | 103 | /
#76 O=C(O)c1n[nH]c(=O)c2ccccc12
  -10 | / | 99 | /
#77 O=C(NC1CCCC1)c1cnc2n(c1=O)CCS2
  4 | 90 | 105 | 96
#78 CC1(C)CC(=NNC(=O)CC#N)CC(C)(C)N1
  -17 | 89 | 100 | 97
#79 Cc1cc(-n2c(C)cc(/C=C/C(=O)O)c2C)no1
  -21 | 102 | / | 96
#80 COc1ccc(CCN(C)C(=S)NN)cc1OC
  -1 | 63 | / | 66
#81 CCOC(=O)c1cccc(NC(=O)Cn2c(=O)nc(-c3ccccc3)c3ccccc32)c1
  / | 72 | 100 | 82
#82 COc1cccc(OC)c1OC(=O)c1cccc(S(=O)(=O)N(C)OC)c1
  -33 | 85 | / | 94
